# Screening results: PubChem BioAssay, Sanford-Burnham Center for Chemical Genomics
# SENP1 inh: blocks the human SENP1 SUMO protease catalytic domain; recombinant SENP1 catalytic domain, CyPet-SUMO1-YPet FRET cleavage; AID 624204; inhibition, % at 10 µM; 360,000 tested, 0.21% active; Q9P0U3;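 active = inhibition at least 30% at 10 µM, raw YFP signal under a set limit, fluorescence ratio 0.5 to 1.5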;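 also: 0% = enzyme with DMSO and 100% = no enzyme wells; some results filed as inactive read as strong as hits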
# Target sequence (Q9P0U3 419-644 limits assumed): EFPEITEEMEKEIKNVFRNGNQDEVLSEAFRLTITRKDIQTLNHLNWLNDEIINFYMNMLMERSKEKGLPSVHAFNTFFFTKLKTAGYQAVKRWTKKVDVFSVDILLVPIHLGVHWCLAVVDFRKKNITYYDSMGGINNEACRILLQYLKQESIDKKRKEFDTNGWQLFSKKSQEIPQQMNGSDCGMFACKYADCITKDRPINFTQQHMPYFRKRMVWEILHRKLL
#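 Controls: no-enzyme wells low, DMSO-plus-enzyme wells high control. Test system: human recombinant His6-tagged SENP1 catalytic domain enzyme. Reagent: SFCypet-SUMO1-SFYpet FRET protein substrate, 25 nM final. Doses: one dose per compound, 10 µM, 0.5% DMSO. Detection: FRET, CFP and YFP emission. Timing: 50 min reaction at room temperature.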
# SENP8 block: blocks human SENP8 cleavage of Nedd8 substrate; Q96LD8; recombinant SENP8, Nedd8 substrate fluorescence; inhibition, % at 20 µM; 360,000 tested, 0.64% active; in the data active = inhibition mostly above about 40%, no sharp cut-off; inactive = mostly below about 27%
# Target sequence (Q96LD8 whole entry, looked up): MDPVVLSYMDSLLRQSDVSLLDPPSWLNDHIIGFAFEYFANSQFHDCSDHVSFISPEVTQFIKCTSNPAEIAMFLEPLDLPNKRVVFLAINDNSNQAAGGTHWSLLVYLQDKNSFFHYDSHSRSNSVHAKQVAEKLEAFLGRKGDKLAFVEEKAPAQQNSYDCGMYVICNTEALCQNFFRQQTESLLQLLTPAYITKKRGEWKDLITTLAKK
# UBC13 inh: human UBC13 polyubiquitination inhibition. inhibition, % at 20 µM. P61088. UBC13 polyubiquitin chain formation, TR-FRET. 330,000 tested, 0.47% active. AID 485273; in the data active = inhibition above about 45%, passing the limit was not always enough
# Target sequence (P61088 whole entry, looked up): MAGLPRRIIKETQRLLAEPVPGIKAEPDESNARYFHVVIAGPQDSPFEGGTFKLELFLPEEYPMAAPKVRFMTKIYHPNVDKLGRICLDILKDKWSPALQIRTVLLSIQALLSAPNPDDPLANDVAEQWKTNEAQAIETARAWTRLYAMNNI
# APOBEC3G inh: inhibitors of human APOBEC3G DNA deaminase; Q9HC16; recombinant A3G, ssDNA deamination FAM/TAMRA fluorescence; inhibition, % at 20 µM; 330,000 tested, 0.28% active; AID 493012;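 active = inhibition of at least 40% at 20 µM, with no more than 30% in the related APOBEC3A deaminase screen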;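 also: plate controls were DMSO wells with A3G for no effect and wells lacking A3G enzyme for full effect; some compounds called inactive have numbers as strong as hits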
# Target sequence (Q9HC16 whole entry, looked up): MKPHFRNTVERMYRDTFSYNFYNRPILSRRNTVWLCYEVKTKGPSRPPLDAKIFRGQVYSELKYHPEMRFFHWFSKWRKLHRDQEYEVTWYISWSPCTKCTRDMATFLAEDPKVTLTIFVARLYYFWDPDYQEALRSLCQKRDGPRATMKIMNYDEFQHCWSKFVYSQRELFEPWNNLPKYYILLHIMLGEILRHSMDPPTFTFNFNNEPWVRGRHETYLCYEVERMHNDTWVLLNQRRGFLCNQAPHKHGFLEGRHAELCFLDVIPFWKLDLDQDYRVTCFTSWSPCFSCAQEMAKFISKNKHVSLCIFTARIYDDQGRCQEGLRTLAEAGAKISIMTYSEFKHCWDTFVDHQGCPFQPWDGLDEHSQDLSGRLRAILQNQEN
# Apaf-1 inh: inhibitors of human Apaf-1 apoptosome; reconstituted apoptosome caspase-3 activity, DEVD-Rh110 fluorescence; 330,000 tested, 0.71% active; O14727; inhibition, % at 20 µM; AID 489030; active = inhibition of at least 40% at 20 µM;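 also: plate controls were DMSO wells for no effect and DEVD-CHO caspase inhibitor wells for full effect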
#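 System: reconstituted apoptosome with Apaf-1, cytochrome c, caspase-9, procaspase-3, dATP; Signal: Rh110 fluorescence intensity; Schedule: 30 min compound preincubation, 50 min activation, room temperature; Reagent: cytochrome c trigger plus (Z-DEVD)2-Rh110 caspase-3 substrate.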
# * hit, by the source's call; nt = no result given. Not all compounds are listed, so the mix of outcomes need not match the whole.
SMILES,SENP1 inh,SENP8 block,UBC13 inh,APOBEC3G inh,Apaf-1 inh
CC(=O)Nc1ccc(S(=O)(=O)N[C@@H](C)C(=O)OCC(=O)c2ccc[nH]2)cc1,-0.8,9.7,-26.8,-1.2,-3.2
O=C1Nc2cc(C(=O)N3CCc4ccccc4C3)ccc2S/C1=C\c1ccccc1,-3.6,-34.1,3.2,-0.9,20.6
O=C1COc2ccc(C(=O)COC(=O)c3cc(S(=O)(=O)NCc4ccccc4)ccc3O)cc2N1,-1.2,-4.3,-2.4,-0.5,-8.6
CC(=O)CSc1nnc(-c2ccco2)n1-c1ccccc1,0.7,4.5,6.4,-3.5,3.2
COc1ccc(C(=O)Oc2ccc(/C=N/NC(=O)c3ccccc3OC)cc2[N+](=O)[O-])cc1,6.3,5.9,-6.0,-1.2,-0.5
CN1CCN(c2ccccc2NC(=O)c2cccc([N+](=O)[O-])c2)CC1,-0.3,-0.1,8.9,-3.3,-5.9
CCOC(=O)C(=O)NC12CC3CC(CC(C3)C1)C2,0.8,24.0,9.9,-3.3,-7.8
Cc1cccc(-c2nnc(SCC(=O)O)n2Cc2ccccc2)c1,0.0,23.6,1.3,-0.9,-0.3
O=C(Nc1nnc(Cc2ccccc2F)s1)c1ccccc1Cl,1.7,17.7,-6.9,-3.3,11.2
Cc1ccc2nc(Nc3ccccc3)c(/C=N/O)c(=O)n2c1,-9.1,-51.4,-11.9,7.0,11.3
C/C(=N\NC(=O)CCc1c(C)n[nH]c1C)c1ccc([N+](=O)[O-])cc1,2.2,11.7,-7.3,1.6,-12.9
COc1ccc(OC)c(NC(=O)Cc2coc3cc(C)cc(C)c23)c1,1.3,11.6,-11.2,-1.9,0.6
O=C(COC(=O)c1ccccc1C(=O)c1ccccc1)c1ccco1,0.6,10.9,-4.2,-0.2,12.8
COc1ccc(NC(=O)c2cc(S(=O)(=O)N3CCOCC3)cs2)cc1,-6.0,12.9,-3.7,-5.3,8.7
N#Cc1ccccc1COC(=O)c1ccc2c(c1)OCO2,1.3,-2.6,15.0,-3.6,5.3
O=C(O)C1c2ccccc2C(=O)N(Cc2ccc(F)cc2)C1c1ccncc1 (configuration not stated),4.9,11.1,3.5,4.5,17.8
OC1CN=C2Sc3ccccc3N2C1 (configuration not stated),0.3,11.9,9.6,-1.8,-5.9
COc1nccnc1NS(=O)(=O)c1ccc(NC(=S)NC(=O)c2cccnc2)cc1,0.8,24.7,-13.0,-6.9,-28.5
CN1CCN(C(=O)CNc2ccc(C(F)(F)F)cc2[N+](=O)[O-])CC1,4.0,19.9,-13.3,-7.9,-17.7
CC(C)(C)NC(=O)c1ccc2c(c1)C(=O)N(C1CCCCC1)C2=O,2.3,14.8,-2.4,-3.2,8.2
COc1nccnc1NS(=O)(=O)c1ccc(NC(=O)c2ccc(F)cc2)cc1,-1.6,9.7,-1.6,-6.1,-4.4
O=C(N/N=C/c1cc2c(cc1Br)OCO2)c1cc2ccccc2o1,-0.8,-369.7,-3.1,-4.6,4.7
O=C(NN=Cc1ccc(F)c(F)c1)c1ccc(NS(=O)(=O)c2cccs2)cc1,1.0,-71.1,-26.3,-0.4,6.5
CCn1c(CN2CCOCC2)nnc1SCC(=O)Nc1ccc(C)cc1,2.0,6.6,-2.8,-1.1,-3.9
c1cnc2cc(-c3ccsc3)ncc2c1,0.3,-494.0,-3.5,-13.6,10.8
COc1ccc(S(=O)(=O)NCC2CCCN(C(=O)c3ccccc3)C2)cc1 (configuration not stated),2.2,0.1,4.3,-1.1,1.4
CN(C)CCOCCOc1ccc(Cl)cc1C(C)(C)C,0.8,4.4,0.2,0.1,-5.6
O=C(NN=Cc1ccccc1OC(F)F)c1ccc(NS(=O)(=O)c2cccs2)cc1,-3.2,-52.5,-12.2,-5.6,-4.8
COc1ccccc1N1C(=O)C2C(C(=O)c3ccccc3)=NN(c3ccc(Br)cc3)C2C1=O (configuration not stated),-33.9,-224.5,16.6,-13.0,11.6
O=S(=O)(Nc1cccc(C(F)(F)F)c1)c1cnc[nH]1,2.1,12.0,-7.5,-8.4,6.9
CCOc1ccc2c(c1)/C(=C(\C(Cl)=C(Cl)Cl)[N+](=O)[O-])N2,-26.4,-196.8,-2.4,0.6,-3.3
CN1CCNC(=O)C1CC(=O)NCCC1=CCCCC1 (configuration not stated),-3.7,-12.3,11.0,-3.5,-2.8
COC(=O)[C@H](C(C)C)N(Cc1ccccc1)S(=O)(=O)CCN1CCN(c2ccccc2)CC1,0.4,13.6,nt,0.6,36.8
O=C(Cn1cnc2sc3c(c2c1=O)CCCC3)NCC(=O)Nc1ccccc1F,0.8,8.5,1.4,-3.0,-1.5
CC1CCCCN1C(=O)COc1ccc(S(=O)(=O)N2CCCC2)cc1[N+](=O)[O-] (configuration not stated),0.6,11.8,-3.2,0.7,2.0
C=CCn1c(C)cc(C(=O)COc2ccc(S(=O)(=O)N3CCCC3)cc2[N+](=O)[O-])c1C,1.7,23.8,0.7,-4.9,7.5
Cc1[nH]c2ccccc2c1C(=O)C(=O)N1CCN(c2ccccc2)CC1,0.1,1.9,-3.6,-3.7,13.9
O=c1c2c(nc3c(-c4ccccc4)c[nH]n13)CCC2,1.4,-269.9,16.3,-5.4,-11.1
O=C(O)c1cc2ccc3ccccc3c2oc1=O,-97.6,-482.8,7.8,-0.7,2.6
Cc1cc(N/N=C/c2ccc(F)cc2)nc(-n2nc(C)cc2C)n1,3.0,13.8,3.3,-2.8,22.5

# A few values from above:
# APOBEC3G inh result of O=c1c2c(nc3c(-c4ccccc4)c[nH]n13)CCC2 stands at -5.4
# SENP8 block result of O=C(NN=Cc1ccc(F)c(F)c1)c1ccc(NS(=O)(=O)c2cccs2)cc1 stands at -71.1
# Apaf-1 inh result of O=C(NN=Cc1ccccc1OC(F)F)c1ccc(NS(=O)(=O)c2cccs2)cc1 stands at -4.8
# Apaf-1 inh result of CN1CCNC(=O)C1CC(=O)NCCC1=CCCCC1 (configuration not stated) stands at -2.8
# APOBEC3G inh result of CCn1c(CN2CCOCC2)nnc1SCC(=O)Nc1ccc(C)cc1 stands at -1.1

# Next section
SMILES,SENP1 inh,SENP8 block,UBC13 inh,APOBEC3G inh,Apaf-1 inh
CCOC(=O)N1CCC(N2C(=O)c3ccc(C(=O)O)cc3C2=O)CC1,1.5,21.2,-4.7,3.8,-2.6
CCN1CCCC1CNS(=O)(=O)c1c(C)cc(C)cc1C (configuration not stated),1.7,2.7,2.7,-10.9,6.9
Cc1cc(C(=O)COC(=O)c2cc(Cl)c(O)c(Cl)c2)c(C)n1C,2.1,11.8,-20.5,30.9,0.6
O=C(Nc1ccccc1N1CCCCC1)c1ncoc1-c1cccc(F)c1,2.1,8.8,14.4,-1.9,-11.5
CCOC(=O)N1CCN(C(=O)c2ccc3c(c2)NC(=O)/C(=C\c2cccc(C)c2)S3)CC1,-8.3,-37.8,3.2,-1.9,30.8
COc1ccc(/C=C2/Sc3ccc(C(=O)N4CCc5ccccc5C4)cc3NC2=O)cc1,1.7,-8.2,8.1,-9.7,4.7
COc1ccc(OCC(=O)Nc2cccc(C(C)=O)c2)cc1,0.1,24.6,2.0,3.4,0.3
CCOCC(=O)OCC(=O)NC12CC3CC(CC(C3)C1)C2,0.3,3.6,-3.4,-6.3,7.7
O=C(Nc1nnc(CCN2CCCCC2)s1)c1cccc(Cl)c1,2.9,-1.0,-2.0,-4.4,-2.6
Cn1c(N)c(C(=O)COC(=O)c2ccc(OC(F)F)cc2)c(=O)n(C)c1=O,-1.0,12.3,1.5,-4.7,17.4
CC(C)C(C(=O)OCC(=O)c1ccc2c(c1)NC(=O)CO2)N1C(=O)c2ccccc2C1=O (configuration not stated),-0.2,22.1,-15.7,-6.0,29.4
Cc1ccc(-n2c(SCC(N)=O)nnc2-c2ccco2)cc1,-1.9,10.4,3.7,-7.3,-9.5
O=C(COC(=O)CNC(=O)c1cccs1)Nc1ccc(C(F)(F)F)cc1[N+](=O)[O-],0.3,12.5,-0.9,-5.5,7.1
O=C(Nc1ccccc1)c1cccc(S(=O)(=O)Nc2ccccn2)c1,1.1,-106.4,3.0,-5.4,-4.1
COc1ccc(-c2nnc(S/C(=C/c3ccc(Cl)cc3)C(=O)O)o2)cc1,-0.8,8.0,-7.8,-1.2,3.3
Nc1cc(=O)nc(SCC(=O)N(C2CCCCC2)C2CCCCC2)n1-c1ccccc1,-7.7,7.5,-9.4,-4.8,10.6
O=C(O)c1ccc(NS(=O)(=O)c2cccc(C(=O)Nc3ccc(Br)cc3)c2)cc1,2.0,5.1,-6.7,-9.8,-15.0
Cc1ccccc1CN1CCNC(=O)C1CC(=O)NCCC1=CCCCC1 (configuration not stated),-15.0,-37.3,13.4,-1.2,-2.7
CN(C)S(=O)(=O)c1ccc(Cl)c(C(=O)NNC(=O)Cc2nc3ccccc3n2C)c1,-3.2,7.2,-0.9,-2.6,-0.3
Cc1[nH]n2c(=O)c(C#N)c(-c3ccccc3)nc2c1-c1ccccc1,0.4,13.4,8.4,-1.5,1.3
NNC(=O)c1ccccc1-n1cccc1,0.9,-21.3,2.2,6.0,4.0
Cc1nc(-c2ccc(C(=O)NCCO)cc2)cs1,0.8,10.5,-13.0,-6.0,1.4
CCOc1cc(/C=C/c2nc3ccccc3c(=O)[nH]2)ccc1O,2.8,-296.1,1.8,-3.8,7.5
COc1ccc(C)cc1NC(=O)CNC(c1ccccc1)c1ccccc1,1.1,9.7,2.5,-1.1,31.0
O=C(Nc1ccccc1)c1cccc(S(=O)(=O)NCc2ccco2)c1,-4.9,25.7,2.0,-0.2,3.1
CCOc1ccc(C=NC23CN4CN(CN(C4)C2)C3)cc1,2.9,13.0,8.2,0.0,-4.5
O=C(CNC(c1ccccc1)c1ccccc1)Nc1ccccc1F,2.0,9.5,2.3,-6.7,2.9
COc1ccc(/C(O)=C2\C(=O)C(=O)N(c3cc(C)on3)C2c2ccc(OC)c(OC)c2)cc1OC (configuration not stated),-1.3,8.3,0.0,-0.6,-2.8
CC(C)(C)NCCCOc1ccc(Cl)cc1C(C)(C)C,nt,nt,34.9,-7.9,-0.5
CN(C)C(CNc1ccc(C(F)(F)F)cc1[N+](=O)[O-])c1ccccc1 (configuration not stated),-0.3,27.6,-8.1,-11.8,18.8
O=C(CSC(=O)c1ccccc1)Nc1ccccc1F,1.6,10.3,-4.0,41.4*,7.1
COc1ccc(-c2cc(-c3n[nH]c(=S)n3-c3ccccc3OC)[nH]n2)cc1,3.5,-5.7,4.7,-7.2,-3.9
COc1ccc(C(=O)n2c(C)c(CCO)c(=O)n2C)cc1,2.0,15.1,-4.8,-8.8,-21.2
CCN(CC)C(=O)C1=C(C)Nc2nnnn2C1c1cccnc1 (configuration not stated),2.1,3.5,-6.4,-8.1,5.8

# Single records, from the list above:
# Cc1ccccc1CN1CCNC(=O)C1CC(=O)NCCC1=CCCCC1 (configuration not stated) is entered as SENP1 inh = -15.0; SENP8 block = -37.3; UBC13 inh = 13.4; APOBEC3G inh = -1.2; Apaf-1 inh = -2.7
# O=C(COC(=O)CNC(=O)c1cccs1)Nc1ccc(C(F)(F)F)cc1[N+](=O)[O-] is entered as SENP1 inh = 0.3; SENP8 block = 12.5; UBC13 inh = -0.9; APOBEC3G inh = -5.5; Apaf-1 inh = 7.1
# COc1ccc(C)cc1NC(=O)CNC(c1ccccc1)c1ccccc1 is entered as SENP1 inh = 1.1; SENP8 block = 9.7; UBC13 inh = 2.5; APOBEC3G inh = -1.1; Apaf-1 inh = 31.0

# Another view of part of the listing above:
smiles	SENP1 inh	SENP8 block	UBC13 inh	APOBEC3G inh	Apaf-1 inh
COc1ccc(C)cc1NC(=O)CNC(c1ccccc1)c1ccccc1	1.1	9.7	2.5	-1.1	31.0
CC(C)(C)NCCCOc1ccc(Cl)cc1C(C)(C)C	nt	nt	34.9	-7.9	-0.5
NNC(=O)c1ccccc1-n1cccc1	0.9	-21.3	2.2	6.0	4.0
COc1ccc(/C(O)=C2\C(=O)C(=O)N(c3cc(C)on3)C2c2ccc(OC)c(OC)c2)cc1OC (configuration not stated)	-1.3	8.3	0.0	-0.6	-2.8
